# Source: PubChem (several laboratories)
# T cruzi repl = blocks replication of Trypanosoma cruzi; T. cruzi beta-gal in NIH3T3, luminescence, 90 h; inhibition, % (concentration not given with the values); hit rate 1.4% among 300,000;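 active = mean inhibition across valid replicates above about 55%, limit read from the data; inconclusive = mean below that limit but half or more replicates reach it; inactive = mean below it, under half of replicates reach it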;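 also: signal also drops with host cell toxicity which is not excluded here; 0% = plate median of DMSO wells and 100% = zero luminescence signal; higher percent means less beta-gal luminescence so fewer parasites; stock transfer was 50 nL into about 50 µL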
# LANA-H2A inh = blocks KSHV LANA binding to histone H2A/H2B | Q9QR71 | cell-free LANA-H2A/H2B peptide, fluorescence polarization | inhibition, % (concentration not given with the values) | hit rate 0.6% among 320,000 | AID 2629; in the data active = inhibition mostly above about 10%, no sharp cut-off; inactive = mostly below about 6.7%;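 also: stock transfer was 7.5 nL into about 10 µL; 0% = median of vehicle wells and 100% = median of positive control wells; one replicate is shown; the record names a cut of 25% in any replicate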
# Target sequence (Q9QR71 whole entry, looked up): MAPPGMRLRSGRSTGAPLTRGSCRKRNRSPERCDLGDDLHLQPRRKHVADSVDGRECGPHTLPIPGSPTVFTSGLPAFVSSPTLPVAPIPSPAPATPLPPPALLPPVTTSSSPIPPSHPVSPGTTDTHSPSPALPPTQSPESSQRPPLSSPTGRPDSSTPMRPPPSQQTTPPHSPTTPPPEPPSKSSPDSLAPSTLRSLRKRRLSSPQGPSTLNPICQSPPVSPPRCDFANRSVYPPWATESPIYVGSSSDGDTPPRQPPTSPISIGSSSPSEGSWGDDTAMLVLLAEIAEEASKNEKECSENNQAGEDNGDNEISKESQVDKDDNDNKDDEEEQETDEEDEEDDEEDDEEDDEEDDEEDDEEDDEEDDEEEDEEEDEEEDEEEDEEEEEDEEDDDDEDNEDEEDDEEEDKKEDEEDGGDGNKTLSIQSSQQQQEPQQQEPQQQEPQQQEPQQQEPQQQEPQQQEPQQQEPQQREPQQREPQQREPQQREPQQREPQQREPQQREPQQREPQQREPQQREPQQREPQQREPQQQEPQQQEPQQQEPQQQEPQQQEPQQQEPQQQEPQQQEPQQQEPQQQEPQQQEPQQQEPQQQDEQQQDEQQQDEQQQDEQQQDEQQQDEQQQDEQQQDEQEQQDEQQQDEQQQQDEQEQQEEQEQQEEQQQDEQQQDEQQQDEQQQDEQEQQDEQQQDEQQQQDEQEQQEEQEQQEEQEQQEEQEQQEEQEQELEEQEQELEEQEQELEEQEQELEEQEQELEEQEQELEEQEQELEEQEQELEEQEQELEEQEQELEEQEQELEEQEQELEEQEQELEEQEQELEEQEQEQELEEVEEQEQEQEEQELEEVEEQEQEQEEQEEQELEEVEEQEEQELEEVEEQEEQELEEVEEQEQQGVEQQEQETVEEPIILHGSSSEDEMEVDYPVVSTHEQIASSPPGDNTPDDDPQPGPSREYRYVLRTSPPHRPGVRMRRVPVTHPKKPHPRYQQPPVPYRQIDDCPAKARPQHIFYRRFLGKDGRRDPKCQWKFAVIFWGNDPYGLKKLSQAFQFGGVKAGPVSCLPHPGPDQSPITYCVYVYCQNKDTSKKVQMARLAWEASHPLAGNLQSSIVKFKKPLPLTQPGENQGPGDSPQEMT
# Calb FLC = affects C. albicans growth with fluconazole; C. albicans CaCi-2 (fluconazole-resistant clinical isolate) + fluconazole, Alamar Blue growth, 48 h; growth inhibition, % (test concentration not listed); hit rate 0.57% among 300,000; AID 1979;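 active = most replicates above 75%; inconclusive = exactly half above 75%; inactive = most below 75%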;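 also: all wells also contain fluconazole at 8 µg/ml as a sub-toxic cotreatment; 0% = median of DMSO wells and 100% = median of geldanamycin control wells; wells of about 8 µL received 7.5 nL stock; the first replicate is given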
# RanGTP-Impb inh = inhibitors of RanGTP-importin-beta interaction, primary screen, biochemical, FRET, CFP-Ran, YFP-importin-beta, homogeneous; cell-free CFP-Ran/YFP-importin-beta FRET ratio; inhibition, % (no concentration beside the values); hit rate 1.1% among 300,000; AID 2216;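 active = most replicates above 15%; inconclusive = exactly half above 15%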;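 also: 0% = DMSO wells and 100% = Ran loaded with GDP instead of GTP; wells of about 40 µL received 100 nL stock; the first replicate is given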
# Vif TR-FRET = HIV-1 Vif–A3G interaction blockers – biochemical, TR-FRET, GST-Vif 1-94, biotin-A3G peptide, dose response retest, primary screen (AID 1117319); hit rate 0.57% among 260,000; inhibition, %, or IC50 in µM where a hit was titrated; TR-FRET GST-Vif / biotin-A3G peptide binding; higher % means a stronger effect; test concentration not given here; strong numbers were not always called active;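 active = above the screen mean plus three standard deviations and confirmed in dose response; inconclusive = results disagree or hit not tested in dose response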;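 also: Vif residues 1-94 fused to GST binding biotinylated APOBEC3G peptide 110-148; 0% = full assay without inhibitor and 100% = GST in place of GST-Vif; retest series ran down from 100 µM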
# MLL AF4-AF9 inh = MLL-AF4/AF9 protein interaction inhibition. P42568. hit rate 0.47% among 350,000. AlphaScreen, biotin-AF4 peptide binding to FLAG-AF9. inhibition, % at 10 µM;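 active = every replicate reaching a set inhibition limit, whatever the replicate mean, cut at about 25% in these data; inconclusive = mean inhibition reaches that limit but some replicates miss it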;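 also: 0% = plate neutral control median and 100% = total signal loss; the record names both 10 and 1 µM as test concentration; the first replicate is given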
# Bfl-1 A1 inh = inhibitors of the anti-apoptotic protein A1, read as caspase activation; MEF A1-2A-BIM cells, Caspase-Glo 3/7 luminescence, 3 h; percent of clofoctol response, vehicle zero; AID 2462; caspase activation, % (concentration not given with the values); hit rate 0.066% among 330,000;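 active = over half of replicate activation scores above 10%, or exactly half above 10 with the replicate mean above 10; inconclusive = replicate mean below 10 yet half the replicates above 10; inactive = over half of replicates below 10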;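 also: wells of about 30 µL received 50 nL stock; many hits fall short of the cut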
# Beta cell apopt = beta cell apoptosis inhibition. protection from apoptosis, % (concentration not given with the values). hit rate 0.8% among 300,000. INS-1E cytokine-induced death, ATP luminescence, 48 h; percent of positive-control rescue, neutral wells zero;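 active = all replicates at 75% or more, or half of them and the mean; inconclusive = half reach 75% but not the mean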;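 also: 0% = cytokine-treated negative control wells and 100% = positive control rescue; higher means more ATP so stronger rescue from cytokine killing; wells of about 40 µL received 100 nL stock; the first replicate is given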
# An asterisk follows results filed as active; ? = inconclusive; / = not tested or not shown; & = joins results of further samples.
SMILES,T cruzi repl,LANA-H2A inh,Calb FLC,RanGTP-Impb inh,Vif TR-FRET,MLL AF4-AF9 inh,Bfl-1 A1 inh,Beta cell apopt
Nc1ccc2c(c1)C(=O)C(=O)c1ccccc1-2,38,4.2,-3,-1.6,20%,/,-0.2,107*
O=C(C[n+]1ccccc1)N/N=C/c1cccc(Cl)c1Cl,-7,2.2,-4,-0.3,0%,-1.7,0.4,-6
O=C(NC1CCCC1)c1ccc(CS(=O)Cc2ccccc2Cl)o1 (stereo not drawn),-1,13,9,-3.2,-5%,-5.4,-1.0,-1
COc1ccc(OC)c(NC(=O)CSc2nnc(Cn3c(=O)sc4ccccc43)n2C)c1,/,-0.8,/,/,24%,-0.1,1.6,1
O=C(Nc1nccs1)C1Cc2ccccc2CN1S(=O)(=O)c1ccc(F)cc1 (stereo not drawn),-2,-0.5,5,4.7,-4%,/,-0.8,0
Cc1sc2ncn(CCC(=O)O)c(=O)c2c1C,/,0.5,-2,4.5,-1%,/,2.0,-3
Cc1ccc(OCc2nnc(SCCN3CCOCC3)n2C)cc1,-2,3.8,1,6.4,?,/,0.4,-7
CC1CN(C(=O)CCNC(=O)c2ccc(Cl)cc2)CC(C)O1 (stereo not drawn),0,-0.4,3,2.6,/,2.3,0.1,-11
CCCOc1ccc(/C=C/C(=O)Nc2ccc([N+](=O)[O-])cc2C)cc1OC,4,-1.9,-4,3.9,-3%,/,0.1,1
COc1ccc(N(C(=O)c2snc(C(N)=O)c2N)C(C(=O)NC2CCCC2)c2ccco2)cc1 (stereo not drawn),23,0.9,8,0.8,/,0.3,-0.8,2
Cc1cccc(N/N=C2/COC(C)(C)CC2=O)c1,-6,1.2,-47,-0.2,-9%,-0.6,-0.6,-7
Cc1ccc(NC(=O)Nc2ccc(F)cc2)cc1Cl,49,-0.6,22,-1.1,/,-0.4,-1.6,30
CCOC(=O)/C(C(N)=NCCO)=C(/O)c1ccccc1,-25,3.0,-5,0.7,2%,/,/,-7
Cc1cc(C)c(S(=O)(=O)NCc2ccc3c(c2)OCO3)cc1C,-5,-7.2,-2,5.0,/,0.5,-0.2,-1
NC(=O)c1c(NC(=O)CN2CCCC2)sc2c1CCCC2,5,-0.4,16,-3.6,6%,/,0.1,0
FC(F)c1nnc2c(Cl)cc(C(F)(F)F)cn12,-5,-0.8,-2,-3.5,/,-1.3,0.1,-1
CC(=O)Nc1ccc(Nc2nc(Cl)nc(Nc3ccc(NC(C)=O)cc3)n2)cc1,-3,2.0,-2,1.2,1%,-9.2,1.2,-4
COc1ccc(-c2noc(CN(C)C(=O)Nc3ccccc3)n2)cc1,12,-3.9,-10,/,-4%,0.5,0.3,-8
O=C(O)/C=C/C(=O)Nc1ccccc1SC(F)(F)F,-25,/,-1,1.5,13%,/,1.5,-3
COc1ccc(/C=C/C(=O)NCCCN2CCCC2)cc1,-10,-6.9,-13,-1.8,-3%,2.5,-0.3,1

# A draw from above in order of molecular weight, lowest first:
SMILES,T cruzi repl,LANA-H2A inh,Calb FLC,RanGTP-Impb inh,Vif TR-FRET,MLL AF4-AF9 inh,Bfl-1 A1 inh,Beta cell apopt
CCOC(=O)/C(C(N)=NCCO)=C(/O)c1ccccc1,-25,3.0,-5,0.7,2%,/,/,-7
COc1ccc(/C=C/C(=O)NCCCN2CCCC2)cc1,-10,-6.9,-13,-1.8,-3%,2.5,-0.3,1
COc1ccc(-c2noc(CN(C)C(=O)Nc3ccccc3)n2)cc1,12,-3.9,-10,/,-4%,0.5,0.3,-8

# 4 entries out of the list above, ordered by the number in RanGTP-Impb inh, high to low.
SMILES,RanGTP-Impb inh
Cc1cc(C)c(S(=O)(=O)NCc2ccc3c(c2)OCO3)cc1C,5.0
O=C(O)/C=C/C(=O)Nc1ccccc1SC(F)(F)F,1.5
CCOC(=O)/C(C(N)=NCCO)=C(/O)c1ccccc1,0.7
Cc1cccc(N/N=C2/COC(C)(C)CC2=O)c1,-0.2

# The results go on.
SMILES,T cruzi repl,LANA-H2A inh,Calb FLC,RanGTP-Impb inh,Vif TR-FRET,MLL AF4-AF9 inh,Bfl-1 A1 inh,Beta cell apopt
CCCC(=O)Nc1ccc(-c2cn3cccnc3n2)cc1,-7,-4.3,-5,-3.7,0%,1.1,-0.5,5
Cc1cc(=O)oc(C)c1C(=O)NCCCN1C(C)CCCC1C (stereo not drawn),3,5.5,12,11,5%,/,0.3,-8
Cc1nnc(SCC(=O)NC(=O)NC(C)(C)C)n1N,-8,-2.8,?,0.3,-1%,/,-0.5,/
C[C@H](NC(=O)c1ccccc1F)C(=O)N1CCC2(CC1)NCCc1[nH]cnc12,-15,3.0,3,3.8,/,-0.9,0.5,-1
Cc1cccc(NC(=O)/C(C#N)=C/c2ccccc2O)n1,0,/,2,-1.3,-9%,-0.4,/,/
C=CCNC(=O)c1ccccc1NC(=O)c1ccc(Cl)c(S(=O)(=O)Nc2cc(C)ccc2C)c1,39,-6.1,0,-1.7,3%,/,-1.9,7
Cn1c(=O)oc2cc(S(=O)(=O)NCCC(=O)N3CCc4ccccc4C3)ccc21,-36,1.3,0,2.6,2%&0%,-41,-0.1,-1
Cc1ccc(C(=O)Nc2ccc(C)c(S(=O)(=O)N(C)C)c2)s1,8,1.1,?,-3.2,-8%,/,0.9,-11
O=C(c1ccc(Oc2ccc(C(F)(F)F)cn2)cc1)N1CCN(c2ccccc2)CC1,18,-0.4,9,0.7,3%,/,0.0,-4
CCOC(=O)c1c(C)n2c3c(cc(C)cc13)CCC2,20,-3.4,-30,4.3,-1%,-1.3,-0.8,-5
CC(=O)NN1C(=O)c2ccccc2NC1c1ccccc1 (stereo not drawn),-11,0.0,-6,5.4,5%,0.1,0.6,/
O=C(NCc1ccccc1)C1CCCC1,-12,8.5,-9,1.6,/,/,2.4,-7
Cc1ccc(NC(=O)Nc2ccon2)cc1Cl,-6,-0.3,-2,1.8,/,-2.3,-3.4,-2
COc1ccccc1Nc1nc(N)nc(CN2CC(C)CC(C)C2)n1 (stereo not drawn),-4,3.4,8,-2.4,/,-0.7,-0.2,-7
COCC(C)NCc1cccc(OC)c1OC (stereo not drawn),-1,3.9,3,?,1%,/,1.4,/
CN(CCc1ccccn1)C1CCCN(S(=O)(=O)c2ccccc2)C1 (stereo not drawn),28,5.6,-10,-2.0,3%,0.2,-0.1,-13
COC(=O)c1ccc(COC(=O)CNC(=O)c2ccco2)cc1,-14,-0.9,7,3.1,2%,/,-0.1,-3
CCOc1ccc(NC(=O)CSc2nc3nc4c(cc3c(=O)n2CC)COC(C)(C)C4)cc1,0,1.5,45,2.9,?,3.3,-0.7,-7
COc1ccc(-c2ccc(-c3noc(-c4ccccc4OC)n3)c(OC)n2)cc1,33,-4.4,-2,35*,-10%,/,-0.5,11
COc1cc(C2SCC(=O)N2CCN2CCCCC2)ccc1O (stereo not drawn),17,-1.5,-3,-1.3,/,-2.4,-0.1,-1
Cc1nc(-c2ccc(S(=O)(=O)Nc3cc(S(=O)(=O)N(C)C)ccc3C)s2)cs1,3,1.8,6,4.2,-2%,-0.1,-1.0,-4
CCCCc1nc2cc(C(=O)NC3CCOC(C)(C)C3)ccc2o1 (stereo not drawn),-16,-0.9,-7,0.2,/,-5.7,0.7,-3
CCCn1nc(C(=O)NNC(=O)CSCC(=O)Nc2cc(C)on2)c2ccccc2c1=O,-12,-5.2,8,?,1%,-12,-0.2,-2
O=C(N1CCN(c2cccc(Cl)c2)CC1)C1(S(=O)(=O)c2ccc(Cl)cc2)CC1,14,2.7,12,2.7,-4%,/,0.9,-8
O=C(NCCC1=CCCCC1)c1ccc([N+](=O)[O-])cc1,2,2.3,-4,4.4,/,/,-1.8,-1
CCNC(=S)N/N=C/c1ccc(-c2ccccc2)o1,0,-3.4,19,1.0,-10%,/,0.0,6
CC(C)CC(=O)N1CCN(Cc2ccccc2Br)CC1,-5,2.2,-4,0.3,/,0.1,1.6,-4
COc1ccc(CNC(=O)COC(=O)[C@H](Cc2c[nH]c3ccccc23)NC(=O)c2cccs2)cc1,-11,2.8,-13,3.0,15%,-84,0.1,-8
CCc1nnc(NC(=O)c2ccc(COc3ccccc3C)o2)s1,-7,-0.2,0,0.4,/,0.7,0.5,-3
COCOc1ccc(-c2oc3c(C/C=C(\C)CCC=C(C)C)ccc(O)c3c(=O)c2OCOC)c(OCOC)c1,-10,-3.2,-4,5.8,/,/,-0.5,0

# Compound profiles (already shown).
# Cc1cc(C)c(S(=O)(=O)NCc2ccc3c(c2)OCO3)cc1C as listed: T cruzi repl: -5; LANA-H2A inh: -7.2; Calb FLC: -2; RanGTP-Impb inh: 5.0; Vif TR-FRET: /; MLL AF4-AF9 inh: 0.5; Bfl-1 A1 inh: -0.2; Beta cell apopt: -1
# O=C(N1CCN(c2cccc(Cl)c2)CC1)C1(S(=O)(=O)c2ccc(Cl)cc2)CC1 as listed: T cruzi repl: 14; LANA-H2A inh: 2.7; Calb FLC: 12; RanGTP-Impb inh: 2.7; Vif TR-FRET: -4%; MLL AF4-AF9 inh: /; Bfl-1 A1 inh: 0.9; Beta cell apopt: -8
# O=C(c1ccc(Oc2ccc(C(F)(F)F)cn2)cc1)N1CCN(c2ccccc2)CC1 as listed: T cruzi repl: 18; LANA-H2A inh: -0.4; Calb FLC: 9; RanGTP-Impb inh: 0.7; Vif TR-FRET: 3%; MLL AF4-AF9 inh: /; Bfl-1 A1 inh: 0.0; Beta cell apopt: -4

# Next section:
SMILES,T cruzi repl,LANA-H2A inh,Calb FLC,RanGTP-Impb inh,Vif TR-FRET,MLL AF4-AF9 inh,Bfl-1 A1 inh,Beta cell apopt
O=C(Nc1ccccc1C(=O)O)c1ccc(Br)o1,4,6.5,1,0.5,4%,-4.8,-7.8,/
O=C(CCS(=O)(=O)c1ccccc1)NC1CCCCC1,3,3.2,-7,0.8,/,-1.6,1.2,-1
O=C(Nc1ccc(Cl)cc1[N+](=O)[O-])c1ccc2c(c1)OCCO2,-2,0.5,1,-0.3,/,-0.5,-0.3,0
COc1ccccc1NS(=O)(=O)c1cccc(C(=O)N/N=C/c2c(C)nn(-c3ccccc3)c2N2CCCC2)c1,15,-0.1,-4,-2.4,/,12,0.1,-8
O=C(Nc1ccc(C(=O)N2CCOCC2)cc1)c1cccc(Br)c1,-10,-8.8,12,1.0,9%,1.8,0.6,/
CN1/C(=C\C(=S)NC(=O)c2cccc(Br)c2)C(C)(C)c2ccccc21,47,-5.5,-38,0.0,32%,-5.7,-0.5,116*
COc1ccc(N2CC(C(=O)Nc3ccncc3)CC2=O)cc1 (stereo not drawn),-5,-4.5,-1,?,/,-16,0.2,/
COc1ccc(-c2nc3nc(SC)nn3cc2C)cc1F,-13,-8.7,?,2.9,-1%,2.1,-0.2,-2
COc1ccc(-c2cc3onc(-c4c(Cl)cccc4Cl)c3c(=O)n2C)cc1,/,1.7,/,/,/,-1.1,0.3,19
O=C(NCc1ccc2c(c1)OCO2)C1CC(c2cccc(Br)c2)=NO1 (stereo not drawn),5,-10,3,1.3,4%,/,-0.1,-2
CC(C)=CCC1=C(OCC(=O)O)C(=O)c2ccccc2C1=O,-1,4.2,45,-2.4,31%,4.6,0.7,10
